CSC inhib: blocks cancer stem cells; AID 2717; inhibition, % at 7.5 µM; cancer stem cell-like cells viability, luminescence; actives 1.1% (n = 300,000);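 active = mean at 75% or more and at least half the replicates too; tested in HMLE shEcad cells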;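 also: 0% = median of negative and 100% = median of positive control wells; the first replicate is given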
eIF4H FP inh: inhibitors of RNA binding by human eIF4H; Q15056; eIF4H fluorescence polarization binding assay; inhibition, % at 35 µM; actives 0.94% (n = 290,000); AID 2012;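 active = 50% or more with normal probe brightness, or confirmed in later tests; about a fifth of its hits are not listed in these tables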;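 also: calls also rest on retests at 20 µM and on dose response follow-up; 0% = protein and probe with vehicle and 100% = probe without protein; strong numbers were not always called active; many hits fall short of the cut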
MT1-MMP act inh: blocks activation of human MT1-MMP. P50281. HT1080 RFP-PRO-GFP cells, GFP/RFP ratio fluorescence, overnight; percent of plate control window, DMSO zero. GFP/RFP ratio change, % at 20 µM. actives 0.061% (n = 360,000). AID 651647;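 active = GFP/RFP ratio change of at least 30% with cell ATP level not reduced by more than half and red fluorescence within 50% of control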; also: strong numbers were not always called active
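Assay system: RFP-PRO-GFP reporter HT1080 cells; read-out basis: GFP/RFP fluorescence ratio; benchmarks: DMSO wells and RFP-L50D-GFP cells; doses: 20 µM single dose, 1% DMSO; schedule: overnight cell settling, then overnight compound exposure, 37 °C, 5% CO2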
Yeast UUG start: modulators of start codon recognition fidelity in yeast; S. cerevisiae UUG-firefly luciferase reporter, luminescence/redox ratio; activity score, % at 18.7 µM; actives 0.13% (n = 350,000); AID 602363;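 active = replicate mean at a twofold rise or more, about +100% in these data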;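 also: firefly luciferase made from a UUG start codon reports start codon fidelity; reporter light over untreated wells divided by growth signal over untreated wells; some hits fall short of that in this replicate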
Rce1 inh: inhibitors of yeast Ras-converting enzyme; Q03530; yeast membranes, quenched prenylated peptide cleavage fluorescence; actives 0.27% (n = 290,000); AID 2563; calls only;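 active = fall in fluorescence gain of 50% or more versus controls, with final raw signal at or below 3038400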;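 also: plate controls were neutral control wells for no effect and wells lacking membranes for full effect; tested at 10 µM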
PABP FP inh: PABP-poly(A) binding inhibition | inhibition, % at 35 µM | actives 1% (n = 290,000) | PABP-poly(A) RNA binding, fluorescence polarization | P11940;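 active = 50% or more with normal probe brightness, or confirmed in later tests; about a fifth of its hits are not listed in these tables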;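 also: calls also rest on retests at 20 µM and on dose response follow-up; controls were probe without protein and protein plus probe with vehicle; some compounds called inactive have numbers as strong as hits; many hits fall short of the cut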
Target sequence (P11940 whole entry, looked up): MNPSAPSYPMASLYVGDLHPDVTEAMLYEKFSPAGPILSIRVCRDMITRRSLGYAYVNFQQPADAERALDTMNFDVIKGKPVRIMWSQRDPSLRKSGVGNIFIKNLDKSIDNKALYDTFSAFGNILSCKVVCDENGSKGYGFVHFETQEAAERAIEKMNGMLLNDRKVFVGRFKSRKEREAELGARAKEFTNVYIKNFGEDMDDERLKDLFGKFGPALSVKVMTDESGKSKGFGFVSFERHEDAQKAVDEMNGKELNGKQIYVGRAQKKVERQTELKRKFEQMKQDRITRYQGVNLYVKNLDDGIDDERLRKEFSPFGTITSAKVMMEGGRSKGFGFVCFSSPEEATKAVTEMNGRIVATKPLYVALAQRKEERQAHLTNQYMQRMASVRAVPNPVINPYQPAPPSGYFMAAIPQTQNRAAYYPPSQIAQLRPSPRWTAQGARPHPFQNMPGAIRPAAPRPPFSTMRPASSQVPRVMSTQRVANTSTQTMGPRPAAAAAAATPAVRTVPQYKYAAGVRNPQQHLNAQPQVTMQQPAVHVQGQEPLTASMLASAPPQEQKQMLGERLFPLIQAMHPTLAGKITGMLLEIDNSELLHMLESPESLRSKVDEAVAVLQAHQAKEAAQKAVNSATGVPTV
Env fusion inh: blocks HIV Env-driven cell-cell fusion; actives 1.1% (n = 360,000); AID 651610; inhibition, % at 12.3 µM; HeLa-JRFL Env/CEM21 cell fusion, luciferase;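 active = mean replicate inhibition score of at least 50 and every replicate individually at or above 50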;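 also: 0% = plate neutral controls and 100% = maraviroc near 300 nM; one replicate is shown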
eIF4H FP inh retest: also measured in eIF4H FP inh; calls as there; inhibition, %; compound at 20 µM; confirmation average;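 mean of two retest wells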
PABP FP inh retest: recorded beside PABP FP inh, whose call it bears; inhibition, %; compound at 20 µM; confirmation repeats;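 mean of two retest wells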
MT1-MMP act inh RFP: further read-out of MT1-MMP act inh, marked with its call; RFP signal change, %; measured here: RFP expression control read;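 0 = vehicle wells; hits needed this value within 50% of zero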
Starred values were filed as active, the others as inactive; i = inactive; nt = not tested or not shown; & = joins results of further samples; [ ] = another dose, or the depositor's remark. Only part of the results is shown. The share of hits here may be higher or lower than overall.

SMILES	CSC inhib	eIF4H FP inh	MT1-MMP act inh	MT1-MMP act inh RFP	Yeast UUG start	Rce1 inh	PABP FP inh	Env fusion inh	others
CC(C)N1C[C@@]23C=C[C@@H](O2)C(C(=O)OCc2ccccc2)[C@H]3C1=O (some centres undefined)	nt	1	0	5	nt	i	0	nt
CCOc1ccc(N(CC(=O)NCc2ccc(F)cc2)C(=O)CCC(=O)Nc2nccs2)cc1	5	-1	-5	-5	-21	i	0	-5
C[C@]12c3[nH]c4cc(-c5ccco5)ccc4c3CCN1C(=O)[C@@H](CC(=O)NCc1ccco1)C[C@@H]2C(=O)N1CCOCC1	nt	nt	-4	-2	-8	nt	nt	3
Cc1ccccc1NC(=O)CSCc1nc(N)nc(Nc2ccccc2C)n1	nt	0	4	0	nt	i	-7	1
Cc1ccccc1OCC(=O)OCC(=O)c1c[nH]c2ccccc12	nt	nt	3	8	-21	nt	nt	-21
CCCCN(CC)C(=O)Cn1cnc2ccc(S(=O)(=O)N3CCC(C)CC3)cc2c1=O	2	4	-1	-2	nt	i	55	27	eIF4H FP inh retest=-9;PABP FP inh retest=2
CN(C(=O)CSc1nc2ccccc2c(=O)n1-c1ccccc1Cl)C1CCS(=O)(=O)C1 (centres undefined)	-34	nt	-5	5	-15	nt	nt	26
Cc1ccc(NC(=S)NC(=O)c2ccc(-c3ccccc3)cc2)c(C)c1	8	13	-3	-7	-24	i	-2	nt
COc1ccc(S(=O)(=O)Nc2c(C)n(C)n(-c3ccccc3)c2=O)cc1	1	-12	3	4	-8	i	-5	-2
O=C(Cc1ccc(Cl)c(Cl)c1)Nc1cccc(S(=O)(=O)N2CCOCC2)c1	2	-4	1	-9	nt	i	-6	18
CC(=O)Nc1cccc(C(=O)OCC(=O)NNC(=O)c2ccc([N+](=O)[O-])cc2)c1	-13	nt	0	-1	-14	i	nt	10
COc1ccc(S(=O)(=O)N2CCOCC2)cc1NC(=O)c1cccc(-n2cccc2)c1	-5	nt	1	1	nt	i	nt	14
O=C(OCc1nnc(-c2ccc(Br)cc2)o1)c1ccco1	-19	0	-3	1	-9	i	-13	6
COc1ccc(C(C[N+](=O)[O-])c2c(C)cc3ccccn23)c(OC)c1 (centres undefined)	43	8	-5	2	-4	i	3	-2
COc1ccc(NC(=O)c2oc3ccccc3c2NC(=O)C2CC2)cc1	-6	-4	-3	-1	-17	i	1	29
O=C(COC(=O)c1ccc([N+](=O)[O-])o1)NCCCc1ccccc1	-12	nt	0	2	-8	nt	nt	nt
CCOc1cc(CNCC2CCCN2CC)cc(Cl)c1OC (centres undefined)	8	-3	3	2	-10	i	19	-11
O=S(=O)(c1ccc(Oc2ccc(Cl)cc2)c(S(=O)(=O)N2CCCCC2)c1)N1CCCCC1	-12	0	-4	1	-16	i	2	22
COc1ccc(-c2nc3ccc(C)cn3c2NCc2ccc3c(c2)OCO3)cc1	8	0	0	-3	-19	i	2	1
CCCN(CC(=O)Nc1ccc(F)c(F)c1F)C(=O)C1CC(=O)N(Cc2ccccc2)C1 (centres undefined)	4	nt	5	2	5	i	nt	1
COc1ccc(C(C)NC(=O)Nc2ccc(C(C)=O)cc2)cc1OC (centres undefined)	nt	8	0	1	-2	i	0	-25
Cc1c(C(=O)c2ccc(Cl)c(Cl)c2)cnc2cc3c(cc12)OCO3	-4	10	5	-2	nt	i	4	4
O=[N+]([O-])c1cccc(N=NNc2cccc([N+](=O)[O-])c2)c1	nt	nt	1	-6	-17	nt	nt	1
CCCC(=O)Nc1sc(C(=O)Nc2cccc(N)c2)c(C)c1C(=O)OC	48	-6	6	0	-11	i	10	0
CCOC(=O)C1CCN(C(=O)CN2C(=O)c3cccnc3Oc3ccc(C)cc32)CC1	-9	nt	-1	0	-3	i	nt	2
Cc1cccnc1NC(=O)Nc1ccc(F)cc1	7	2	-4	1	nt	i	-6	nt
Cc1ccc(N2C(=O)CC(Cc3ccc(Cl)cc3)C2=O)cc1 (centres undefined)	-13	-1	-2	-2	-12	i	-1	18
C[N+](C)(C)CCOP(=O)([O-])OC[C@H](O)CO	-13	2	1	2	-3	i	0	7
COc1ccc(-c2noc(CN3CCN(c4ccccc4F)CC3)n2)cc1OC	-3	2	-2	1	-7	i	-6	nt
COc1cc(/C=C/C(=O)O)cc(S(=O)(=O)Nc2ccccc2SC)c1OC	-6	-9	7	5	nt	i	-9	-3
CC[n+]1c(/C=C(/C)SC)sc2ccccc21	0	4	0	9	-10	i	0	-190
COc1ccc(OCC(=O)N2CCN(C(=O)c3ccc(F)cc3)CC2)cc1	-8	-5	0	-1	-11	i	-16	nt
CN(C)CCCNC(=O)C[C@H]1C[C@H](C(=O)N2CCCCC2)[C@@]2(C)c3[nH]c4cc(CCC(=O)N(C)C)ccc4c3CCN2C1=O	nt	nt	2	7	-12	nt	nt	17
CC1CCCC(C)N1C(=O)COC(=O)c1ccco1 (centres undefined)	-12	nt	0	3	-6	nt	nt	-6
COc1nc2ccccc2nc1OC	-7	7	1	1	-11	i	15	-4
CCN(Cc1ccc(OC)c(F)c1)C(=O)/C=C/c1ccc(S(=O)(=O)N2CCOCC2)cc1	-9	nt	-5	-11	-9	nt	nt	8
CC(C)(Oc1ccc(Cl)cc1)C(=O)N/N=C/c1cn[nH]c1-c1ccccc1	nt	-12	8	7	12	i	-1	-7
COc1ccc(-c2nc(N)nc(C)c2Oc2ccccc2Br)c(O)c1	83*	35	-14	-12	-7	nt	34	nt
Cc1cccc(NC(=O)CCN2C(=O)c3ccccc3C2=O)c1	-12	1	7	3	8	i	8	3
CSc1ccc(Cl)c(C(=O)N2CCN(CC(=O)N3CCCC3)CC2)c1	-13	nt	-4	2	-1	nt	nt	nt

Molecules listed so far that contain bromine, in the order listed:
SMILES	CSC inhib	eIF4H FP inh	MT1-MMP act inh	MT1-MMP act inh RFP	Yeast UUG start	Rce1 inh	PABP FP inh	Env fusion inh	others
O=C(OCc1nnc(-c2ccc(Br)cc2)o1)c1ccco1	-19	0	-3	1	-9	i	-13	6
COc1ccc(-c2nc(N)nc(C)c2Oc2ccccc2Br)c(O)c1	83*	35	-14	-12	-7	nt	34	nt

(next part)
SMILES	CSC inhib	eIF4H FP inh	MT1-MMP act inh	MT1-MMP act inh RFP	Yeast UUG start	Rce1 inh	PABP FP inh	Env fusion inh	others
CCOc1ccc(NC(=O)c2cnccn2)cc1	1	-7	0	3	-43	i	-3	nt
O=C(Nc1cc(Cl)ccc1O)C1CC(c2ccccc2Cl)=NO1 (centres undefined)	12	-10	-1	-2	-7	i	-10	14
Cc1cc(=O)n2[nH]c(-c3ccco3)nc2n1	2	12	3	3	-16	i	29	nt
COC(=O)[C@H]1[C@H]2C[C@H]3c4[nH]c5ccccc5c4CCN3C[C@H]2CC[C@@H]1O	-9	0	-4	8	-22	i	-3	8
C=CCNC(=O)CC(=O)N/N=C/c1cccc(Br)c1	-2	-6	5	4	-11	i	-6	nt
CN(/N=C/c1c[nH]c2ccccc12)c1cnn(-c2ccc(F)c(Cl)c2)c(=O)c1Cl	14	78*	-2	4	-3	i	70*	-5
O=C1c2ccccc2C(=O)C1c1ccc(Br)cc1	-2	4	-5	0	-20	i	9	-1
C[C@H](CO)N1C[C@H](C)[C@@H](CN(C)S(=O)(=O)c2ccccc2)Oc2c(NS(=O)(=O)c3ccccc3)cccc2C1=O	nt	nt	-1	-2	11&17	nt	nt	-18[16.7 µM]
CCN(CC)S(=O)(=O)c1ccc(NC2c3ccccc3C(=O)N2c2ccc(C)cn2)cc1 (centres undefined)	-5	-5	-4	-1	-10	i	5	-24
O=C(CSC(=S)N1CCOCC1)N1N=CCC1c1ccccc1 (centres undefined)	-9	1	0	2	nt	i	2	-48
O=C(Nc1nc(-c2ccccc2)c(-c2ccccc2)s1)c1ccc(S(=O)(=O)N2CCCCC2)cc1	11	7	-18	-21	-1	i	-6	-36
COc1ccc(CN2CCC(N3CC(C)OC(C)C3)CC2)c(OC)c1 (centres undefined)	-1	8	3	-3	6	i	9	5
CCSc1ccccc1C(=O)N1CCN(c2ccccc2F)CC1	-9	-11	-3	2	29	i	8	-27
COc1cccc(NC(=O)CC2C(=O)NC3CCCCC3N2C(=O)c2ccccc2)c1 (centres undefined)	-1	-9	-2	-3	-24	i	-4	8
O=C(CSc1ncn(-c2ccccc2)n1)c1cccs1	29	-6	-3	-1	-15	i	-6	-157
CCOC(=O)C1(CCOc2ccccc2)CCN(Cc2cccc(OCCO)c2)CC1	10	-1	1	-1	-3	i	-6	-16
CCCCNC1=NCCS1	-18	3	2	2	nt	i	-1	13
CN(C)c1ccc(C(=S)N2CCN(c3ccccc3)CC2)cc1	32	-2	-1	3	-24	i	-7	-26
O=C(COc1ccc(Br)cc1)NNC(=O)c1cc(S(=O)(=O)N2CCOCC2)ccc1Cl	nt	nt	1	-1	-14	nt	nt	-7
CCOC(=O)c1c(C)[nH]c(N=Nc2ccc(OC)cc2)c1C	14	-7	4	-2	nt	i	0	-32
COc1cc(C)c(S(=O)(=O)N2CCN(C)CC2)cc1C	2	1	1	3	5	i	7	nt
C#CCOCCOCCOCCNc1nc(N2CCN(C(=O)Cn3cc(CCO)nn3)CC2)nc(N2CCN(C(=O)Cn3cc(CCCCN)nn3)CC2)n1	nt	nt	0	-1	5	nt	nt	-19
CC(C)=CCC/C(C)=C/C=N/NC(=O)c1ccc([N+](=O)[O-])cc1	3	2	2	-2	-18	i	9	-14
CCC(C)(C)NC(=O)C(Sc1ccccc1)c1ccccc1 (centres undefined)	-3	0	-4	3	nt	i	-2	6
O=C(O)Cc1c(-c2ccccc2)c2cc(Cl)ccc2[nH]c1=O	-7	-6	1	3	nt	i	-6	5
CCOc1cc(C2/C(=C(/O)c3ccc(OC)cc3)C(=O)C(=O)N2CC2CCCO2)ccc1O (centres undefined)	-18	-4	nt	nt	nt	i	8	nt
C[C@H]1CCCCO[C@@H](CN(C)C(=O)NC2CCCCC2)[C@@H](C)CN([C@@H](C)CO)C(=O)c2cc(NC(=O)Cc3ccccc3)ccc2O1	nt	nt	-2	-5	6&-10	nt	nt	-2[16.7 µM]
COc1ccc(N2C(=O)NC(NC(=O)c3cccnc3)(C(F)(F)F)C2=O)cc1 (centres undefined)	-4	5	4	-2	-12	i	2	-7
CC(C)C[C@H](NC(=O)N1CCn2c1nc1ccccc12)C(=O)NC1CC1	-5	55	2	4	2	i	-2	-5	eIF4H FP inh retest=-3;PABP FP inh retest=-1
COC(=O)C(C)NC(=O)C1CCCN1C(=O)CNC(=O)OCc1ccccc1 (centres undefined)	-6	4	1	3	-18	i	-3	7
CCN(CC)C(=O)c1cc2c(=O)n3cccc(C)c3nc2n1C	-9	-8	6	4	3	i	-18	36
CC(C)OC(=O)C(CC(=O)O)NCc1ccccc1 (centres undefined)	-6	-7	-4	4	-28	i	-1	nt
CCOc1cc(-c2noc(CCC(=O)NCC3CCCO3)n2)ccc1OC (centres undefined)	-15	-7	1	1	2	nt	7	-12
O=C(O)c1nn(Cc2csc(-c3ccccc3)n2)c(=O)c2ccccc12	6	-4	nt	nt	0	nt	-2	3
CCN1C(=O)C(O)(CC(=O)/C=C/C=C/c2ccccc2)c2ccccc21 (centres undefined)	17	5	-2	-3	nt	i	-2	nt
CN1C(=O)C(C)(C)c2cc(S(=O)(=O)N3CCCC(C(=O)Nc4ccc(Cl)cc4)C3)ccc21 (centres undefined)	-10	-14	-24	-39	-8	i	-8	10
CCOC(=O)c1c(NC(=O)COC(=O)C2CCC2)sc(C(=O)N(C)C)c1C	nt	nt	0	1	-3	nt	nt	-17
Nc1ccc(Cc2nc3c(ccc4ccccc43)[nH]2)cc1	5	10	6	-7	-16	i	-3	nt

Screening data: PubChem, several laboratories
